High-throughput results as filed in PubChem.
FGF22 binding: shifts melting point of recombinant human FGF22; Q9HCT0; calls only at 9.99 µM; 1.5% of 340,000 active; recombinant FGF22 thermal shift, SYPRO orange fluorescence; percent of sucrose octasulfate shift, DMSO zero; AID 651658;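 active = melting point raised past a set limit in the mean and every replicate; three in four hits are not shown here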
Target sequence (Q9HCT0 whole entry, looked up): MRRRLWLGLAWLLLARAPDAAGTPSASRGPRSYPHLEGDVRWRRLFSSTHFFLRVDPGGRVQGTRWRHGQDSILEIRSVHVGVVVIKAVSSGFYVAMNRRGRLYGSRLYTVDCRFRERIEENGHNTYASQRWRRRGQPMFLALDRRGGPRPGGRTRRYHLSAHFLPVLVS
Calls only; i = inactive. Not all compounds are listed. The share of hits here may be higher or lower than overall.

Start of the data: the first 5 records as a preview:
SMILES	FGF22 binding
C[C@@H]1CN([C@H](C)CO)C(=O)c2cc(C3=CCCCC3)cnc2O[C@H]1CN(C)C(=O)c1cccnc1	i
C=CC(=O)NC1CCCCN(C)C1=O (stereo not drawn)	i
C[C@@H]1CN([C@@H](C)CO)C(=O)c2cccc(NC(=O)Nc3ccc(C(F)(F)F)cc3)c2O[C@@H]1CN(C)Cc1ccncc1	i
Cc1ccc(S(=O)(=O)N(C)C[C@@H]2Oc3ccc(NS(=O)(=O)c4ccc(F)cc4)cc3CC(=O)N([C@H](C)CO)C[C@H]2C)cc1	i
CN(C)C(=O)C[C@H]1CC[C@H](NS(=O)(=O)c2ccccc2)[C@@H](CO)O1	i

Results, from the first entry:
SMILES	FGF22 binding
C[C@@H]1CN([C@H](C)CO)C(=O)c2cc(C3=CCCCC3)cnc2O[C@H]1CN(C)C(=O)c1cccnc1	i
C=CC(=O)NC1CCCCN(C)C1=O (stereo not drawn)	i
C[C@@H]1CN([C@@H](C)CO)C(=O)c2cccc(NC(=O)Nc3ccc(C(F)(F)F)cc3)c2O[C@@H]1CN(C)Cc1ccncc1	i
Cc1ccc(S(=O)(=O)N(C)C[C@@H]2Oc3ccc(NS(=O)(=O)c4ccc(F)cc4)cc3CC(=O)N([C@H](C)CO)C[C@H]2C)cc1	i
CN(C)C(=O)C[C@H]1CC[C@H](NS(=O)(=O)c2ccccc2)[C@@H](CO)O1	i
C[C@@H]1CN([C@@H](C)CO)C(=O)c2cccc(NS(=O)(=O)c3ccc(Cl)cc3)c2O[C@@H]1CN(C)C(=O)Nc1ccc2c(c1)OCO2	i
O=C(C[C@H]1CC[C@@H]2[C@H](COC[C@@H](O)CN2C(=O)c2ccccn2)O1)N1CCN(c2ccccc2)CC1	i
CCCN1C[C@@H](C)[C@@H](OC)CN(C)C(=O)c2cc(NS(=O)(=O)c3cn(C)cn3)ccc2OC[C@@H]1C	i
COc1cccc(S(=O)(=O)N[C@H]2CC[C@@H](CC(=O)NC3CCC3)O[C@H]2CO)c1	i
C[C@H](CO)N1C[C@H](C)[C@H](CN(C)CC2CC2)Oc2ccc(NS(C)(=O)=O)cc2C1=O	i
C[C@@H]1CN([C@@H](C)CO)S(=O)(=O)c2ccc(-c3cccc(F)c3)cc2O[C@H]1CN(C)S(C)(=O)=O	i
O=C(C[C@@H]1C=C[C@H](NC(=O)CCN2CCCCC2)[C@@H](CO)O1)Nc1ccc(-c2ccccc2)cc1	i
CCC(=O)Nc1ccc2c(c1)OC[C@H](C)N(C(=O)c1ccccc1F)C[C@@H](C)[C@@H](OC)CN(C)C2=O	i
COc1cccc(C#Cc2ccc([C@H]3[C@H](C#N)N(C(=O)C4CC4)[C@H]3CO)cc2)c1	i
CN(C)C(=O)c1ccc(-c2ccccc2[C@H]2[C@@H](C#N)N(C(=O)C3CCCCC3)[C@@H]2CO)cc1	i
COCC(=O)N1CC(=O)N2[C@H](CO)[C@@H](c3ccc(C#CC4CC4)cc3)[C@H]2C1	i
C[C@H](CO)N1C[C@H](C)[C@@H](CN(C)CC2CCCCC2)Oc2ccc(NC(=O)C3CCCCC3)cc2C1=O	i
C[C@@H]1CN([C@@H](C)CO)C(=O)Cc2cc(NC(=O)C3CCCCC3)ccc2O[C@H]1CN(C)Cc1ccc(C(=O)Nc2ccccc2N)cc1	i
COc1ccc(S(=O)(=O)Nc2ccc3c(c2)C(=O)N([C@@H](C)CO)C[C@H](C)[C@H](CN(C)C(=O)Nc2cccc4ccccc24)OCCCC[C@H](C)O3)cc1	i
C[C@@H]1CN([C@@H](C)CO)C(=O)c2cc(C#CCN(C)C)cnc2O[C@H]1CN(C)Cc1ccc(-c2ccccc2)cc1	i
N#C[C@@H]1[C@H](c2ccccc2-c2cccc(F)c2)[C@H](CO)N1C(=O)C1CCC1	i
CO[C@@H]1CN(C)C(=O)c2cc(NS(C)(=O)=O)ccc2OC[C@@H](C)N(C(=O)CN(C)C)C[C@H]1C	i
NCC[C@H]1CC[C@@H](NC(=O)Nc2ccc(F)cc2)[C@H](CO)O1	i
CCC(=O)N(C)C[C@H]1Oc2ncc(C#Cc3cccnc3)cc2C(=O)N([C@H](C)CO)C[C@@H]1C	i
CCCC#Cc1ccc2c(c1)O[C@H](CN(C)C(=O)c1ccncc1)[C@H](C)CN([C@H](C)CO)S2(=O)=O	i
COc1ccc2c3c(n(C)c2c1)[C@@H](CO)N(C(=O)Cc1ccccn1)CC31CN(CC2CC2)C1	i
CN1CCN(C(=O)C[C@H]2C[C@H]3c4cc(NC(=O)NC5CCCC5)ccc4O[C@H]3[C@H](CO)O2)CC1	i
CCCNC(=O)N1C[C@@H](O)COC[C@H]2O[C@@H](CC(=O)N[C@@H]3CCN(Cc4ccccc4)C3)CC[C@@H]21	i
CCc1c(-c2ccccc2OC)ncn1CCc1ccccc1OC	i
COCC#Cc1cnc2c(c1)C(=O)N([C@H](C)CO)C[C@H](C)[C@H](CN(C)S(C)(=O)=O)O2	i
Cc1noc(C)c1NC(=O)Nc1cccc2c1O[C@@H](CN(C)Cc1ccc(Cl)c(Cl)c1)[C@H](C)CN([C@H](C)CO)C2=O	i
C[C@@H]1CN([C@H](C)CO)C(=O)c2cc(NC(=O)CCCN(C)C)ccc2O[C@@H](C)CCCCO[C@H]1CN(C)S(=O)(=O)c1ccccc1	i
COc1ccc(CN(C)C[C@H]2Oc3c(NC(=O)C4CCOCC4)cccc3C(=O)N([C@@H](C)CO)C[C@@H]2C)cc1	i
Cc1ccc(S(=O)(=O)Nc2ccc3c(c2)CC(=O)N([C@@H](C)CO)C[C@@H](C)[C@H](CN(C)C(=O)Nc2ccc(C(F)(F)F)cc2)O3)cc1	i
COc1cccc(NC(=O)N(C)C[C@@H]2OCc3ccccc3-c3ccccc3C(=O)N([C@H](C)CO)C[C@@H]2C)c1	i
O=C(NC[C@@H]1[C@@H](c2ccccc2)[C@H](CO)N1C(=O)Cc1ccncc1)C1CCC1	i
CNC[C@@H]1Oc2ccc(NC(=O)Nc3c(C)noc3C)cc2CC(=O)N([C@H](C)CO)C[C@@H]1C	i
COCC(=O)Nc1ccc2c(c1)[C@H]1C[C@H](CC(=O)NCc3cc(F)ccc3F)O[C@@H](CO)[C@H]1O2	i
COc1cccc(NC(=O)N(C)C[C@H]2Oc3cc(C#CC4(O)CCCC4)ccc3S(=O)(=O)N([C@@H](C)CO)C[C@@H]2C)c1	i
CN(C)CC(=O)N[C@H]1CC[C@@H](CCNC(=O)C2CCC2)O[C@@H]1CO	i
CO[C@H]1CN(C)C(=O)c2cc(NC(=O)C3CCOCC3)ccc2OC[C@@H](C)N(C(C)=O)C[C@@H]1C	i
C[C@@H]1CN([C@@H](C)CO)C(=O)CCCn2cc(nn2)CO[C@H]1CN(C)C(=O)Nc1ccnc(N2CCOCC2)c1	i
CCCN1[C@H](C(=O)N(C)C)[C@@H](CO)[C@@H]2Cn3c(ccc(/C=C/c4ccccc4)c3=O)[C@@H]21	i
CN(C)CC(=O)Nc1ccc2c(c1)[C@@H]1C[C@H](CC(=O)NCc3ccc4c(c3)OCO4)O[C@H](CO)[C@@H]1O2	i
CCN(C[C@H]1N[C@H](CO)[C@@H]1c1ccc(-c2cccc(F)c2)cc1)C(=O)CN(C)C	i
CCCC#Cc1ccc2c(c1)O[C@H](CN(C)C(=O)c1cccnc1)[C@@H](C)CN([C@@H](C)CO)S2(=O)=O	i
Cc1ccc(S(=O)(=O)N[C@@H]2CC[C@@H](CCn3cc(-c4cccc(F)c4)nn3)O[C@H]2CO)cc1	i
CC(C)CC#Cc1ccc2c(c1)O[C@H](CN(C)C(=O)Cc1ccccc1)[C@@H](C)CN([C@H](C)CO)S2(=O)=O	i
Cc1ccc(S(=O)(=O)Nc2cccc3c2O[C@@H](CN(C)CC2CC2)[C@@H](C)CN([C@@H](C)CO)C3=O)cc1	i
C[C@H]1CN([C@@H](C)CO)C(=O)c2cccc(NC(=O)c3ccncc3)c2O[C@@H]1CN(C)S(=O)(=O)c1ccccc1	i

New compounds follow:
SMILES	FGF22 binding
CO[C@H]1CN(C)C(=O)c2cc(NC(=O)Cc3ccccc3)ccc2OC[C@H](C)N(C(=O)c2ccccc2F)C[C@H]1C	i
COCCN(C[C@H]1N[C@H](CO)[C@@H]1c1ccc(-c2cccnc2)cc1)C(C)=O	i
Cc1ccc(S(=O)(=O)N(C)C[C@@H]2Oc3ccc(N(C)C)cc3CC(=O)N([C@@H](C)CO)C[C@H]2C)cc1	i
C/C=C/c1ccc([C@H]2[C@@H](CNC(=O)CC)N(C(=O)COC)[C@H]2CO)cc1	i
C[C@@H]1CN([C@@H](C)CO)S(=O)(=O)c2ccc(-c3ccc(C(=O)N(C)C)cc3)cc2O[C@H]1CN(C)C(=O)C1CCOCC1	i
O=C(NCC[C@@H]1CC[C@@H](NC(=O)c2ccccc2F)[C@H](CO)O1)c1ccc2c(c1)OCO2	i
COc1ccc(NC(=O)Nc2ccc3c(c2)C(=O)N([C@@H](C)CO)C[C@H](C)[C@@H](CN(C)C(=O)CCCN(C)C)OCCCC[C@H](C)O3)cc1	i
O=C(C[C@@H]1CC[C@@H](NC(=O)CCN2CCCCC2)[C@H](CO)O1)Nc1nccs1	i
O=S(=O)(N[C@H]1CC[C@H](CCn2cc(-c3cccc(F)c3)nn2)O[C@@H]1CO)c1ccc(Cl)cc1	i
C[C@@H]1CN([C@@H](C)CO)C(=O)Cc2cc(NS(=O)(=O)c3ccc(F)cc3)ccc2O[C@@H]1CN(C)C(=O)Nc1ccc(F)cc1	i
COc1ccc(NC(=O)N(C)C[C@H]2Oc3ccc(NC(=O)Nc4ccc(F)cc4)cc3CC(=O)N([C@H](C)CO)C[C@H]2C)cc1	i
COc1ccc(NC(=O)N2C[C@H]3[C@@H](c4ccccc42)[C@@H](CO)N3C(=O)C2CC2)cc1	i
COc1ccc(NC(=O)Nc2ccc3c(c2)C(=O)N([C@H](C)CO)C[C@H](C)[C@@H](CN(C)C(=O)NC2CCCCC2)OCCCC[C@@H](C)O3)cc1	i
C[C@H]1CN([C@@H](C)CO)C(=O)c2cccc(N(C)C)c2O[C@@H]1CN(C)C(=O)Nc1ccccc1	i
Cc1ccccc1S(=O)(=O)N1[C@@H](C#N)[C@@H](c2ccc(-c3ccc(F)cc3)cc2)[C@@H]1CO	i
O=C(NCC[C@H]1CC[C@H](NC(=O)C2CCCC2)[C@@H](CO)O1)Nc1ccc(Cl)cc1	i
C[C@H]1CN([C@@H](C)CO)C(=O)c2cc(C#CC3CCCC3)cnc2O[C@@H]1CN(C)C(=O)Cc1ccccn1	i
C[C@H](CO)N1C[C@H](C)[C@@H](CN(C)C(=O)C2CCCCC2)Oc2cc(C#CCN(C)C)ccc2S1(=O)=O	i
CNC[C@H]1Oc2ncc(C#CCC(C)C)cc2C(=O)N([C@H](C)CO)C[C@H]1C	i
CCCN1[C@@H]2c3ccc(-c4ccccc4)c(=O)n3C[C@H]1[C@H](CO)[C@H]2C(=O)NCCc1cn(C)cn1	i

Given as a markdown table: entries from further up.
| molecule | FGF22 binding |
| --- | --- |
| COc1ccc(NC(=O)N(C)C[C@H]2Oc3ccc(NC(=O)Nc4ccc(F)cc4)cc3CC(=O)N([C@H](C)CO)C[C@H]2C)cc1 | i |
| COc1ccc(NC(=O)N2C[C@H]3[C@@H](c4ccccc42)[C@@H](CO)N3C(=O)C2CC2)cc1 | i |
| COc1ccc(NC(=O)Nc2ccc3c(c2)C(=O)N([C@H](C)CO)C[C@H](C)[C@@H](CN(C)C(=O)NC2CCCCC2)OCCCC[C@@H](C)O3)cc1 | i |
| C[C@H]1CN([C@@H](C)CO)C(=O)c2cccc(N(C)C)c2O[C@@H]1CN(C)C(=O)Nc1ccccc1 | i |
| Cc1ccccc1S(=O)(=O)N1[C@@H](C#N)[C@@H](c2ccc(-c3ccc(F)cc3)cc2)[C@@H]1CO | i |

Other entries
SMILES	FGF22 binding
C[C@@H]1CN([C@@H](C)CO)S(=O)(=O)c2ccc(C#CC3CCCC3)cc2O[C@H]1CN(C)S(C)(=O)=O	i
O=C(N[C@H]1C=C[C@H](CC(=O)N2CCC(Cc3ccccc3)CC2)O[C@H]1CO)c1cnccn1	i
C[C@@H]1CN([C@H](C)CO)C(=O)c2cc(NC(=O)NC3CCCCC3)ccc2O[C@@H](C)CCCCO[C@@H]1CN(C)Cc1ccc2c(c1)OCO2	i
C[C@H](CO)N1C[C@H](C)[C@H](CN(C)C(=O)c2ccncc2)OCCCC[C@H](C)Oc2ccc(NC(=O)NC3CCCCC3)cc2C1=O	i
O=C(Nc1ccc(F)cc1)N1CCCCN2[C@H](CO)[C@H](c3ccc(-c4ccncc4)cc3)[C@H]2C1	i
Cc1noc(C)c1S(=O)(=O)Nc1ccc2c(c1)C(=O)N([C@H](C)CO)C[C@@H](C)[C@@H](CN(C)Cc1ccncc1)OCCCC[C@H](C)O2	i
C[C@@H](O)C#Cc1ccc([C@@H]2[C@H](CO)N3CCCCN(S(=O)(=O)Cc4ccccc4)C[C@@H]23)cc1	i
CC(C)NC(=O)N(C)C[C@H]1Oc2c(NC(=O)c3ccc(-c4nccs4)cc3)cccc2C(=O)N([C@H](C)CO)C[C@H]1C	i
O=C(C[C@@H]1C=C[C@H](NC(=O)Nc2ccc(F)cc2)[C@H](CO)O1)NCc1cccc(F)c1	i
CO[C@H]1CN(C)C(=O)c2ccc(NC(=O)c3ccc4c(c3)OCO4)cc2OC[C@@H](C)N(CC2CC2)C[C@H]1C	i
C[C@@H]1CN([C@H](C)CO)C(=O)c2cccc(NS(=O)(=O)c3ccc(F)cc3)c2O[C@@H]1CN(C)CC1CCCCC1	i
CCNC(=O)C[C@@H]1CC[C@@H]2[C@@H](COc3ccc(NS(=O)(=O)c4ccccc4C)cc3C(=O)N2C)O1	i
CC(C)NC(=O)N[C@H]1C=C[C@H](CC(=O)NCc2ccc(Oc3ccccc3)cc2)O[C@H]1CO	i
COCC(=O)N[C@@H]1C=C[C@@H](CC(=O)NCc2ccc(Cl)cc2)O[C@@H]1CO	i
CO[C@H]1CN(C)C(=O)c2ccc(NC(=O)c3ccccc3)cc2OC[C@@H](C)N(CC2CC2)C[C@H]1C	i
CC(C)CC#Cc1ccc2c(c1)O[C@H](CN(C)C(=O)c1ccccc1F)[C@H](C)CN([C@H](C)CO)S2(=O)=O	i
